High-throughput results deposited in PubChem BioAssay by National Center for Advancing Translational Sciences (NCATS).
TSHR agonist = activates the human thyroid stimulating hormone receptor; HEK293-CNG-TSHR cells (CNG channel as cAMP sensor), membrane potential dye, cAMP; Potency, µM (highest dose often 57.1 µM), for the others: at the top dose activation, usual class: activators; 73,000 tested, 0.48% active; AID 926; active = well fitted activation curve of enough size with the parental cells flat; inconclusive = any curve in the parental cells; inactive = parental cells flat and receptor cells flat or falling; note: potency is the fitted concentration of half-maximal effect; % of control where 0% means no effect; weak receptor curves with flat parental cells got no call and are not listed
Target sequence (P16473 whole entry, looked up): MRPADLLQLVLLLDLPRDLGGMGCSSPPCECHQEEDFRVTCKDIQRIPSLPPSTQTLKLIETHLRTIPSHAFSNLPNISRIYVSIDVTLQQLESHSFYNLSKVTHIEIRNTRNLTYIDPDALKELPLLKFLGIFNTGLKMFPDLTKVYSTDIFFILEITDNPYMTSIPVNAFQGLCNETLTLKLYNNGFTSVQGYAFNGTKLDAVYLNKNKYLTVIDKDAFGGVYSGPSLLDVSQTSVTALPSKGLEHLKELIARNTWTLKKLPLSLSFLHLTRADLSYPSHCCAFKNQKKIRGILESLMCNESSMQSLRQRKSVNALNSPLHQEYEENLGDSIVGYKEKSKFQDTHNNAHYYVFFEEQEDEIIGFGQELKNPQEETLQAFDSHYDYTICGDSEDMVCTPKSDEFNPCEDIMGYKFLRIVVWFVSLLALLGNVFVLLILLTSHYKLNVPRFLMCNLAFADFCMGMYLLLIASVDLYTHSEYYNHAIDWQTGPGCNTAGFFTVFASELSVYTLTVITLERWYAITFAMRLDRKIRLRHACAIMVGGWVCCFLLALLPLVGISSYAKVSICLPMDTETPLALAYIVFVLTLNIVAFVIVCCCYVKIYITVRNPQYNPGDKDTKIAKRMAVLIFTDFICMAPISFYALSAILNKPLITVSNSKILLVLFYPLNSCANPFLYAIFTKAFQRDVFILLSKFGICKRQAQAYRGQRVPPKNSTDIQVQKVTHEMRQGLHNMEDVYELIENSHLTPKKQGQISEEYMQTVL
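cAMP rise detected as CNG-channel membrane depolarization by fluorescent dye (emission 590 nm), 30 min after compound, following 60 min dye loading containing 100 uM RO 20-1724 at room temperature. Cells: TSHR/CNG HEK 293, with parental CNG HEK 293 as control.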
AID923 = qHTS Assay for Allosteric/Competitive Inhibitors of Caspase-1: Spectroscopic Profiling in AFC Spectral Region | AID 923, 2007 | 75,000 tested, 1.1% active | compound fluorescence, AFC spectral region (405/520 nm); almost no hit is shown here | Potency, µM (titrated, usually from 57.5 µM), inactives show at the top dose fluorescence increase, actives largely listed as activators; active = well fitted activation curve with a large enough effect; inconclusive = small, poorly fitted or top-dose-only effect;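 note: potency is the fitted concentration of half-maximal effect; 0% is about no effect; scaled to a free AFC standard on each plate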
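Baseline compound fluorescence (AFC region, 405 nm ex/520 nm em) taken from the intercept of kinetic reads with 50 nM caspase-1 and 5 uM Ac-WEHD-AFC; normalized to an on-plate AFC standard curve; compounds titrated up to 57 uM.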
A647 fluor = compound autofluorescence in A647 spectral region | AID 592 | Compound fluorescence, A647 channel (570/671 nm), Tris buffer | max dye-equivalent concentration, M | 59,000 tested, under 10 active; active means above 1 µM dye equivalent; inconclusive means 0.1 to 1 µM; inactive means 0.1 µM or less;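 note: values scaled relative to a standard on each plate; highest value over a series up to 38 µM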
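Fluorescence read (570 nm ex, 671 nm em) after 15 min RT incubation of compounds in 100 mM Tris buffer, pH 8.0; values expressed as dye-equivalent concentration against a six-point A647 standard series on each plate.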
A488 fluor = compound autofluorescence in A488 spectral region; compound autofluorescence, A488 spectral region, dye equivalency; stronger effect = higher value; max dye equivalency, M; 59,000 tested, 0.1% active; active = above 10 nM dye equivalent; inconclusive = 1 to 10 nM; inactive = 1 nM or less; about half of its hits are not listed in these tables;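 note: highest value over a series up to 38 µM; compound alone in buffer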
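Read-out: relative fluorescence at 480/540 nm, expressed as Alexa 488 dye-equivalent concentration from a six-point A488 standard included per plate. Conditions: 100 mM Tris, pH 8.0; 15 min incubation, room temperature.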
Resorufin fluor = compounds fluorescent in resorufin spectral region | 59,000 tested, 0.04% active | max dye-equivalent concentration, M | Compound fluorescence, resorufin region 547/598 nm, buffer; stronger effect = higher value; active = above 10 nM dye equivalent; inconclusive = 1 to 10 nM; inactive = 1 nM or less; a few of its hits are not listed in these tables; note: highest value over a series up to 38 µM
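Dye-equivalent concentration values derive from comparing each well's 547/598 nm fluorescence against resorufin standards included on every plate. Incubation was 15 min at room temperature in 100 mM Tris, pH 8.0.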
* = called active by the depositor; i = inactive; ? = inconclusive; · = not tested or not shown; [ ] = dose if it differs, or a comment. Some of the compounds tested, so the mix of outcomes need not match the whole.

SMILES	TSHR agonist	AID923	A647 fluor	A488 fluor	Resorufin fluor
c1cnn(-c2nc(N3CCOCC3)nc(N3CCOCC3)n2)c1	13%	1.9%	·	·	·
O=C(NCc1ccccn1)c1cnc2sccn2c1=O	-1%	-0.5%	1.5e-08	i	i
CC(NC(=O)c1ccc(NS(C)(=O)=O)cc1)c1ccccc1 (stereo not drawn)	0%	-1.2%	2.6e-08	i	i
O=C(CSc1nnc(NC(=O)C2CCC2)s1)Nc1ccc(N2CCOCC2)cc1	-10%	3.1%	1.5e-08	i	i
CCOC(=O)c1c(NC(=O)CSc2nc3c(c(=O)n(C)c(=O)n3C)n2C(C)C)sc(C)c1C	9%	0.4%	5.7e-09	i	i
COc1ccc2c(c1)NC1(O)c3ccccc3C(=O)C21O (stereo not drawn)	1%	0.0%	1e-09	i	i
O=c1cc(-c2ccc(O)c(O)c2)oc2cccc(O)c12	-1%	-2.8%	1e-09	i	i
COc1ccc(Br)cc1-c1noc(-c2ccncc2)n1	5%	0.3%	7.2e-09	i	i
CCCC(C)C(=O)Nc1ccc(C(N)=O)cc1 (stereo not drawn)	1%[11.4 µM]	-1.0%	·	·	·
Cc1ccccc1SCC(=O)NC1CCOC1=O (stereo not drawn)	0%	0.1%	5.2e-09	i	i
COc1ccc(NC(=O)N2CCC3(CC2)CCN(S(C)(=O)=O)CC3)cc1	1%	3.4%	2.2e-08	i	i
C[C@H](NC(=O)OC(C)(C)C)c1nnc(SCC(=O)Nc2ccc(Br)cc2)o1	24%	-0.7%	4.2e-09	i	i
COC(=O)C1(C)NC(c2ccco2)C2C(=O)N(c3ccc(C)cc3)C(=O)C21 (stereo not drawn)	-4%	4.5%	1.7e-08	i	i
COC(=O)c1ccc(OC(=O)C2CC(=O)N(c3cccc(C)c3)C2)cc1 (stereo not drawn)	0%	-0.3%	1.6e-08	i	i
COC(=O)C(NC=O)C(O)(Cc1ccccc1)C(F)(F)F (stereo not drawn)	?	0.6%	1e-09	i	i
CC1CCC(C(=O)O)([C@H](Br)C(=O)O)CC1 (stereo partly drawn)	-3%[11.4 µM]	1.2%[11.5 µM]	8.3e-09	i	i
Cc1cc(C)nc(Nc2ccc(N3CCOCC3)cc2)n1	1%	1.0%	2.2e-08	i	i
CC1CCN(C(=O)C2CCN(S(=O)(=O)c3cnc[nH]3)CC2)CC1	-1%	-2.2%	2e-09	i	i
Cc1sc2nc(SCC(=O)NCCO)n(C)c(=O)c2c1C	4%	1.6%	·	·	·
CC1(C)NC(C)(C)c2nonc2/C1=N\O	3%	-0.2%	·	·	·

The closing 2 compounds of the part before come first, to join the parts:
SMILES	TSHR agonist	AID923	A647 fluor	A488 fluor	Resorufin fluor
Cc1sc2nc(SCC(=O)NCCO)n(C)c(=O)c2c1C	4%	1.6%	·	·	·
CC1(C)NC(C)(C)c2nonc2/C1=N\O	3%	-0.2%	·	·	·
Nc1nonc1-n1nnc(C(=O)c2ccccc2)c1-c1ccccc1	8%	0.3%	2.8e-08	i	i
O=C(CC1Oc2ccccc2NC1=O)NC1CC1 (stereo not drawn)	-5%	2.4%	·	·	·
Cc1ccccc1-n1c(Cn2c(=O)sc3ccccc32)nnc1SCC(=O)NCC1CCCO1 (stereo not drawn)	11%	3.1%	·	·	·
CCCCSCCCNC(=O)CS(=O)Cc1nc(-c2cccc(C)c2)oc1C (stereo not drawn)	-1%[11.4 µM]	0.5%	1.9e-08	i	i
Cn1nnnc1SCC(=O)Nc1ccccc1Cc1ccccc1	-3%	-0.6%	2.4e-08	i	i
Cc1ncc(CO)c2cc(C(N)=O)c(=Nc3ccccc3)oc12	-8%	-0.2%	1.4e-08	i	i
Cc1ccc(C)c(Cn2c(CO)nc3ccccc32)c1	?	-6.9%	1e-09	i	i
Cc1cc(C)cc(N2CC(C(=O)O)CC2=O)c1 (stereo not drawn)	29%	0.0%	5.5e-09	i	i
COC(=O)C(Cc1ccccc1)NC(=O)CSc1nc(N)cc(=O)[nH]1 (stereo not drawn)	13%	1.0%	3.2e-09	i	i
COc1ccc(Cn2nnnc2CN2CCOCC2)cc1	0%	1.3%	1e-09	i	i

Full records, looked up by structure.
Cc1ncc(CO)c2cc(C(N)=O)c(=Nc3ccccc3)oc12 in the list: TSHR agonist = -8%; AID923 = -0.2%; A647 fluor = 1.4e-08; A488 fluor = i; Resorufin fluor = i
CCCCSCCCNC(=O)CS(=O)Cc1nc(-c2cccc(C)c2)oc1C (stereo not drawn) in the list: TSHR agonist = -1%[11.4 µM]; AID923 = 0.5%; A647 fluor = 1.9e-08; A488 fluor = i; Resorufin fluor = i

Remaining list, next part
SMILES	TSHR agonist	AID923	A647 fluor	A488 fluor	Resorufin fluor
N#C/C(=C(/O)COC(=O)CCCNC(=O)c1ccc(Cl)cc1)c1nc2ccccc2[nH]1	15%	0.5%	8.3e-09	i	i
COc1ccc(OC)c(N/C=C2/CCCCC2=O)c1	-6%	-0.2%	3.5e-08	i	i
Cc1nnc(SCCn2c(N(C)Cc3ccccc3)nc3c2c(=O)n(C)c(=O)n3C)s1	·	3.1%	2.1e-09	i	i
O=C(COc1ccccc1Cl)N(Cc1ccco1)C1CCS(=O)(=O)C1 (stereo not drawn)	-1%	2.8%	1.2e-09	i	i
O=C(Nc1ccccc1)C1=C(O)CC(c2ccco2)CC1=Nc1ccccc1 (stereo not drawn)	7%	-0.1%	2.3e-08	i	i
Cc1ccc(S(=O)(=O)N2CCN(C(=O)N(C)C)CC2)cc1C	·	0.7%	2.2e-08	i	i
C[C@]12C=CC(=O)C=C1CC[C@H]1[C@@H]3C[C@@H](O)[C@](O)(C(=O)CO)[C@@]3(C)C[C@H](O)[C@@]12F	·	-5.5%	3.5e-08	i	i
Cc1nnc(SCC(=O)N2CCC(Cc3ccccc3)CC2)n(N)c1=O	2%	-0.4%	2.5e-08	i	i
CCN(CC)C(=O)CSc1nc2sc(C)c(C)c2c(=O)[nH]1	12%	-2.7%	3.8e-08	i	i
Cc1cccc(Cl)c1OCCCCn1ccnc1	17%	1.0%	3.1e-08	i	i
O=C(NCC(=O)N1CCCC1C(=O)O)OC1CCCCC1 (stereo not drawn)	6%[11.4 µM]	2.5%	6e-09	i	i
CC1(C)CC(=O)C(/C=N/c2ncccc2C(=O)O)=C(O)C1	5%	0.4%	1.7e-08	i	i
Cc1cc(C)c2c(CN3CCN(Cc4ccc5c(c4)OCO5)CC3)cc(=O)oc2c1	-38%[inhibitor]	-1.4%	1e-09	i	i
CCOc1ccc(/C=c2\sc3nc(-c4ccco4)nn3c2=O)cc1OCC	4%[11.4 µM]	-5.8%	7.2e-09	?	i
C=CCNC(=O)C1CCN(S(C)(=O)=O)CC1	13%	0.5%	3.3e-08	i	i
Cc1cccc(NC(=O)c2ccc(S(=O)(=O)N(C)C)cc2)n1	-7%	0.2%	5e-09	i	i
Cc1cc(=O)cc(C)n1-c1ccccc1N1CCOCC1	4%	4.3%	2.9e-09	i	i
COc1cccc(N2CCN(C3CC(=O)N(c4cccc(Cl)c4)C3=O)CC2)c1 (stereo not drawn)	·	·	6.5e-09	i	i
COC(=O)c1ccc(CSc2nc(-c3ccco3)cc(C(F)(F)F)n2)o1	?	2.9%	5.8e-09	i	i
COc1cccc(N2C(=O)CC(N3CCN(S(=O)(=O)c4ccccc4)CC3)C2=O)c1 (stereo not drawn)	-1%	-0.4%	1e-09	i	i
O=S(=O)(NCCCN1CCN(c2ccccc2F)CC1)c1cccc2cccnc12	-1%	-2.1%	·	·	·
S=c1[nH]nc(C23CC4CC(CC(C4)C2)C3)n1Cc1ccco1	-1%	-0.1%	1e-09	i	i
Cc1ccc(OCC(=O)Nc2ccc3c(c2)nc2n3CCOC2)cc1	-11%	2.3%	3.5e-08	i	i
COc1ccc(CC(=O)NC(CC(=O)O)c2ccc(OC)cc2)cc1 (stereo not drawn)	?	0.7%	9.3e-09	i	i
COc1cccc(-c2nccc(NCc3ccccc3)n2)c1	?	-0.3%	3.8e-08	i	i
O=C(CSc1nnc2scc(-c3ccccc3)n12)c1ccc2c(c1)OCCO2	1%	0.1%	·	·	·
Cc1cc(NC(=O)CSc2nnc(COc3cccc(C)c3C)n2Cc2ccco2)no1	-7%	-1.5%	1.3e-08	i	i
CCCS(=O)(=O)N1CCCC(C(=O)NCCN2CCOCC2)C1 (stereo not drawn)	0%	-0.5%	1e-09	i	i
COC(=O)C1(C#N)C(c2ccccc2)C1(C(=O)OC)C(=O)OC (stereo not drawn)	10%	0.3%	·	·	·
Cc1nnc(NC(=O)CSc2nnc(-c3ccc(S(=O)(=O)N4CCCC4)cc3)n2C)s1	5%	-0.1%	1e-09	i	i
Nc1c(C(=O)c2ccc(F)cc2)oc2ccccc12	5%	0.1%	2.1e-08	i	i
COCCN(CCOC)c1nc(C)nc2c1nc(-c1ccccc1)n2CCN1CCCC1	?	-0.1%	·	·	·
C=CCSC1=C(C#N)C(c2ccccc2OCC)C(C#N)C(=O)N1 (stereo not drawn)	0%	0.1%	6.7e-08	i	i
COc1ccc(C)cc1S(=O)(=O)N1CCCCC1	?	-1.9%	2.6e-09	i	i
CSc1cccc(NC(=O)C2CCCN2S(=O)(=O)c2ccc3c(c2)CCC(=O)N3)c1 (stereo not drawn)	2%[11.4 µM]	-1.4%	1.7e-08	i	i
CCOC(=O)c1cc(CC)sc1NC(=O)CCC(=O)O	5%	0.3%	1e-09	i	i
CCOC(=O)c1ccc(NC(=O)c2nn(C)cc2Br)cc1	7%	-1.1%	·	·	·
CCn1c(=O)cc(OCC(=O)Nc2ccc(Cl)cn2)c2ccccc21	0%[11.4 µM]	-0.2%	1e-09	i	i
O=C(c1ccco1)N1CCN(C(=O)C2CCCc3c2[nH]c2ccc(Cl)cc32)CC1 (stereo not drawn)	-3%	-0.9%	6.4e-09	i	i
COc1ccccc1CC(NC(C)=O)C(=O)N1CCN(C(=O)Nc2ccccc2Cl)CC1 (stereo not drawn)	5%	0.9%	5e-09	i	i

5 compounds from above, showing only AID923:
Molecule | AID923
Nc1c(C(=O)c2ccc(F)cc2)oc2ccccc12 | 0.1%
COCCN(CCOC)c1nc(C)nc2c1nc(-c1ccccc1)n2CCN1CCCC1 | -0.1%
C=CCSC1=C(C#N)C(c2ccccc2OCC)C(C#N)C(=O)N1 (stereo not drawn) | 0.1%
COc1ccc(C)cc1S(=O)(=O)N1CCCCC1 | -1.9%
CSc1cccc(NC(=O)C2CCCN2S(=O)(=O)c2ccc3c(c2)CCC(=O)N3)c1 (stereo not drawn) | -1.4%

Going on with the list:
SMILES	TSHR agonist	AID923	A647 fluor	A488 fluor	Resorufin fluor
O=C(C1CN(S(=O)(=O)c2ccccc2)CCN1S(=O)(=O)c1ccccc1)N1CCCCCC1 (stereo not drawn)	-3%	1.4%	·	·	·
COc1ccc(NC(=O)c2ccc(-n3nc(C)c[n+]3[O-])cc2)cc1	-3%	-0.3%	4.1e-08	i	i
COc1ccccc1C(=O)n1nc(-c2ccccc2)nc1N	15%	-1.0%	2.9e-08	i	i
Cc1cc(Nc2ccc(Br)cc2F)n2nc(C)nc2n1	14%	0.5%	·	·	·
Cc1ccc(-n2c(C)cc(C(=O)CSc3nncs3)c2C)cc1	?	2.6%	4.1e-08	i	i
Cc1cc(C)n(-c2nc(SCC(=O)Nc3nccs3)c3c4c(sc3n2)COC(C)(C)C4)n1	?	-0.2%	1.1e-09	i	i
Cc1nc(N)sc1-c1csc(Nc2ccccn2)n1	-22%	2.0%	·	·	·
O=S(=O)(NCC(c1cccnc1)N1CCN(c2ccc(F)cc2)CC1)c1cccs1 (stereo not drawn)	5%	2.0%	·	·	·
CCn1c(CSc2nc(C)cc(C)n2)nnc1SCC(=O)Nc1ccccc1	6%	1.5%	1e-09	i	i
O=C(O)c1cc2nc(-c3ccc(F)cc3)cc(C(F)(F)F)n2n1	-7%	6.1%	·	·	·
CC(=O)Nc1ccc(N2CCN(C(C)=O)CC2)cc1	-3%	-0.3%	1.4e-08	i	i
